KCNQ2 inh – KCNQ2 potassium channel inhibitors, primary screen, cell-based, CHO-K1, FluxOR thallium flux, B-score (AID 2156); O88943; 20 min; stronger effect = lower value; only compounds with negative scores are shown here; some inactives read as strong as hits; B-score at 10 µM; 310,000 compounds, 1.1% hits;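 active = fluorescence ratio B-score at most minus 3 library SDs, with starting brightness B-score within 2 library SDs, cut at about -5.5 in these data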
Target sequence (O88943 whole entry, looked up): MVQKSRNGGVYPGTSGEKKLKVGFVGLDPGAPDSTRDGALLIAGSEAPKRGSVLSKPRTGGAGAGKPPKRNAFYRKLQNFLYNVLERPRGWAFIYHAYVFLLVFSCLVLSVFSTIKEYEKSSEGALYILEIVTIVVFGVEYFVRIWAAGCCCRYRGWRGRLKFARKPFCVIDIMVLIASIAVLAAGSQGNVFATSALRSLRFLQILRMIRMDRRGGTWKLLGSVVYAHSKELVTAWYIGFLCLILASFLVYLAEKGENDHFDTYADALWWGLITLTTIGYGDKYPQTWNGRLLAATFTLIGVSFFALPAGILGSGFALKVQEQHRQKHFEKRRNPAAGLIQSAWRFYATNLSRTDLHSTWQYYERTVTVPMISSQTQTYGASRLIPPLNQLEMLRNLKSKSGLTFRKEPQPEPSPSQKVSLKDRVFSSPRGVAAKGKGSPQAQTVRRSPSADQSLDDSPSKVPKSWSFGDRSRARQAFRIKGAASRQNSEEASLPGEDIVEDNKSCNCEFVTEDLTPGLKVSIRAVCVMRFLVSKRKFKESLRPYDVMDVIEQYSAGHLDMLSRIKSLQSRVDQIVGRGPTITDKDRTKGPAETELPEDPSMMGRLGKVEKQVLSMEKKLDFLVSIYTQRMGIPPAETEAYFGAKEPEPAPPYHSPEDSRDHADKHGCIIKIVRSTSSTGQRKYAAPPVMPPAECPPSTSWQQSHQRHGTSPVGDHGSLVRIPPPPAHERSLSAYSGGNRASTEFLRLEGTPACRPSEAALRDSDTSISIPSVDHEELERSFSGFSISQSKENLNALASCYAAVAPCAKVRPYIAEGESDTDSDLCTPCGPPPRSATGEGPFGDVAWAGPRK
KCNQ2 inh baseline – recorded beside KCNQ2 inh, whose call it bears; B-score; measured here: initial fluorescence intensity artifact check;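 brightness before thallium and not channel activity; 0 = typical well and far values either way flag optical interference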
* = called active by the depositor; i = inactive. These rows are one share of the data (hit frequency here may not be typical).

Below each compound: KCNQ2 inh, KCNQ2 inh baseline
Cc1ccc(NC(=O)CSc2nnc(-c3ccncc3)o2)cc1C
  i, 1.8
CCN1C(c2ccccc2)C(C)C(=O)C(C)C1c1ccccc1 (configuration not stated)
  -8.4*, -0.64*
Cn1cnnc1SC(C(=O)c1ccccc1)c1ccccc1 (configuration not stated)
  i, -0.53
Oc1c(C=NCc2ccc(F)cc2)[nH]c2ccc(Br)c(Cl)c12
  i, -0.55
CCOC(=O)Cc1csc(SCC(=O)N2CCN(c3ccc(OC)cc3)CC2)n1
  i, 0.03
COc1ccc(Cl)cc1C(Nc1cccnc1)c1ccc2cccnc2c1O (configuration not stated)
  i, -0.02
Cc1nc2c(c(=O)n1CCC1=CCCCC1)c1nc3ccccc3nc1n2/N=C/c1ccccc1
  -5.7*, -0.04*
CC1CCN(c2nc3c(c(=O)n(C)c(=O)n3C)n2CCSc2nc3ccccc3o2)CC1
  i, -1
O=C(C1CCCC1)N1CCN(S(=O)(=O)c2ccc(Cl)cc2)CC1
  i, -0.58
Cc1n(CC(O)COCc2ccccc2)c2ccccc2[n+]1C (configuration not stated)
  i, 2.2
N#Cc1cc(C(=O)c2cc(F)ccc2O)cn(-c2nccs2)c1=O
  i, 11
COc1ccc(C2C(C(C)=O)=C(O)C(=O)N2c2nc3ccccc3s2)cc1OC (configuration not stated)
  i, -0.26
CC(C)C(NS(=O)(=O)c1c(Cl)cccc1Cl)C(=O)OCC(=O)c1c[nH]c2ccccc12 (configuration not stated)
  i, 0.32
O=C(NCCCN1CCOCC1)C1(c2ccccc2)CCOCC1
  i, -1.2
CCC(Oc1ccccc1)C(=O)N1CCN(C(=O)C(CC)Oc2ccccc2)CC1 (configuration not stated)
  i, -0.04
CCCCn1c(CCC)nc([N+](=O)[O-])c1Sc1ccc(Cl)cn1
  i, 0.54
O=C(NCc1ccccc1)C1=C[C@H](C2CCCCC2)C[C@H](OCc2ccc(CO)cc2)O1
  i, -0.49
CO/N=C/c1ccc(Sc2ccccc2)c([N+](=O)[O-])c1
  i, -0.27
O=C(CSc1nc(-c2ccccc2)ns1)NCC1CCCO1 (configuration not stated)
  i, -2.8
COc1ccccc1CNC(=O)C(C)n1cccc1C(=O)c1ccccc1 (configuration not stated)
  -5.7*, 1.7*

Four records drawn at random from the list so far:
Below each compound: KCNQ2 inh, KCNQ2 inh baseline
CCN1C(c2ccccc2)C(C)C(=O)C(C)C1c1ccccc1 (configuration not stated)
  -8.4*, -0.64*
Cc1n(CC(O)COCc2ccccc2)c2ccccc2[n+]1C (configuration not stated)
  i, 2.2
CC(C)C(NS(=O)(=O)c1c(Cl)cccc1Cl)C(=O)OCC(=O)c1c[nH]c2ccccc12 (configuration not stated)
  i, 0.32
COc1ccccc1CNC(=O)C(C)n1cccc1C(=O)c1ccccc1 (configuration not stated)
  -5.7*, 1.7*

The results go on.
Below each compound: KCNQ2 inh, KCNQ2 inh baseline
CCOc1ccccc1CNS(=O)(=O)c1ccc2c(c1)oc(=O)n2C
  i, -0.57
Cn1cc(CNC(=O)c2ccc(OC3CCN(Cc4ccccn4)CC3)cc2)cn1
  i, 2.1
O=C(COc1ccc(C(=S)N2CCOCC2)cc1)Nc1ccccc1C(F)(F)F
  i, 0.06
COCCCNC(=O)c1ccc([N+](=O)[O-])cc1
  i, -2.4
O=C1NC(c2ccccn2)Nc2sc3c(c21)CCC3 (configuration not stated)
  i, -1.3
Cc1cc(=O)n2c3c(cccc13)CCC2
  i, 0.79
CS(=O)(=O)N1CCC(C(=O)Nc2ccc(Cl)c(Cl)c2)CC1
  i, -0.72
CC(CC(=O)Nc1ccc(F)c([N+](=O)[O-])c1)c1ccccc1 (configuration not stated)
  i, -0.11
O=S(=O)(Cc1ccc(Cl)cc1)N1CCN(c2ncccn2)CC1
  i, 0.04
CN(C)c1ccc(/C=N/NC(=O)c2ccnn2C)cc1
  i, 1.4

As entered above:
Reading for CN(C)c1ccc(/C=N/NC(=O)c2ccnn2C)cc1 under KCNQ2 inh baseline: 1.4
Reading for O=S(=O)(Cc1ccc(Cl)cc1)N1CCN(c2ncccn2)CC1 under KCNQ2 inh baseline: 0.04
Reading for Cc1cc(=O)n2c3c(cccc13)CCC2 under KCNQ2 inh baseline: 0.79
Reading for O=C(COc1ccc(C(=S)N2CCOCC2)cc1)Nc1ccccc1C(F)(F)F under KCNQ2 inh baseline: 0.06
Reading for Cn1cc(CNC(=O)c2ccc(OC3CCN(Cc4ccccn4)CC3)cc2)cn1 under KCNQ2 inh baseline: 2.1

(further entries)
Below each compound: KCNQ2 inh, KCNQ2 inh baseline
Cc1ccc(C)c(N2CCN(S(=O)(=O)c3c(C)[nH]c(C)c3C(=O)N3CCCC3)CC2)c1
  i, -0.02
CC(NC(=O)c1ccc2c(c1)OCO2)C1CCCO1 (configuration not stated)
  i, -0.64
O=C(CC(c1ccccc1)c1ccco1)N1CCOCC1 (configuration not stated)
  i, -0.04
O=c1cc(O)c2ccccc2n1Cc1ccccc1
  i, -3.4
COc1ccc(NC(=O)C2CCN(S(=O)(=O)c3c(C)noc3C)CC2)cc1
  i, -0.87
CCOC(=O)c1[nH]c2ccccc2c1NC(=O)c1ccco1
  i, 1.8
CCCN1C(=O)C(O)(c2c(C)[nH]c3ccccc23)c2ccccc21 (configuration not stated)
  i, 1.8
Cc1cc(C)c2c3c(sc2n1)C(c1cccc(F)c1)C(C#N)=C(N)O3 (configuration not stated)
  i, 0.03
CC(Oc1ccc(Br)cc1)C(=O)NCC(c1ccco1)N1CCCCC1 (configuration not stated)
  i, -0.86
CC(C)CC(C(=O)NC(=O)NCc1ccccc1)N1C(=O)c2ccccc2C1=O (configuration not stated)
  i, 1.2
Cc1ccccc1CNC(=O)c1cc(COc2ccc(F)cc2F)on1
  i, 0.18
O=C(CNS(=O)(=O)c1ccccc1)N1CCN(Cc2ccccc2)CC1
  i, 1.2
CCCCC(=O)Nc1c(O)c2ccccc2[nH]c1=O
  i, -1.2
Cc1cccc(C)c1OCc1cc(C(=O)NC2CCC(O)CC2)no1 (configuration not stated)
  i, -0.83
Cc1ccc(NC(=S)N/N=C2\CCCCC2C)cc1 (configuration not stated)
  i, -2.2
CC(C)Cc1cc(C(=O)N2CCN(C(c3ccccc3)c3ccccc3)CC2)no1
  i, 1.8
CCc1cc2c(SCC(=O)C(C#N)=C3N(C)c4ccccc4N3C)ncnc2s1
  i, 1.7
COCCNC(=O)CN(C(=O)c1ccc(N2CCCC2)nc1)c1ccc(F)c(Cl)c1
  i, 0.28
Cc1ccc(S(=O)(=O)/C(=C\N(C)C)c2cnc(Cl)s2)cc1
  i, -0.65
Cc1c(C(=O)NNC(=S)Nc2cccc(Cl)c2)nnn1-c1ccccc1
  i, 0.13
Cc1ccc(CNc2nnnn2C)cc1
  i, -0.01
COc1ccc(CN2CN(c3ccc(Cl)cc3)C(=O)N(n3cnnc3)C2)cc1
  i, -0.38
Cc1cc(-c2[nH]nc3c2C(c2ccc(Cl)cc2)C(C#N)=C(N)O3)c(C)s1 (configuration not stated)
  i, 0.43
O=C(CCC(=O)OCC(=O)c1ccc(Br)cc1)NC1CCCCC1
  i, -0.69
COc1ccccc1NS(=O)(=O)c1cccc(C(=O)N2CCN(Cc3ccc4c(c3)OCO4)CC2)c1
  i, -1.3
COc1ccc(C(=O)NC2c3ccccc3-c3ccccc32)cc1
  i, 0.91
C/C(=N/NC(N)=S)c1ccc(Br)s1
  i, -0.71
COc1ccccc1OCCC(=O)N1CCN(c2ccccc2OC)CC1
  i, 0.32
Cc1ccc(OCc2nc(-c3ccc(Cl)cc3)n[nH]2)cc1
  i, -0.2
Cc1nc2ccc(NC(=O)CS(=O)(=O)c3ccccc3)cc2s1
  i, -1.6
O=C1CC(c2cccc([N+](=O)[O-])c2)c2c(ccc3ccccc23)N1 (configuration not stated)
  i, 0.89
COc1ccc(-c2csc(NC(=O)C3=NN(c4ccccc4)C(=O)CC3)n2)cc1
  i, -0.92
Cc1cc(NC(=O)COC(=O)C2CC(=O)N(c3ccc(Cl)cc3)C2)no1 (configuration not stated)
  i, 0.66
O=C(Nc1ccc(Nc2ccncc2)cc1)c1ccc(Nc2ccnc3ccc([N+](=O)[O-])cc23)cc1[N+](=O)[O-]
  i, 0.42
COc1ccc(N=C2SC(CC(=O)Nc3ccccc3F)C(=O)N2Cc2ccco2)cc1 (configuration not stated)
  i, -0.19
Cc1ccc(C(=O)N2CCN(c3cccc(Cl)c3)CC2)cc1C
  i, 0.6
O=c1[nH]c(SCc2ccccc2)nc2c1cnn2-c1ccc(F)cc1
  i, 0.87
COc1ccc(NC(=O)Cn2nnc(C(=O)Nc3ccccc3C)c2N)cc1
  i, 1.8
Cc1c(NC(=O)C(C)OC(=O)c2cccc(S(=O)(=O)N(C)C)c2)c(=O)n(-c2ccccc2)n1C (configuration not stated)
  i, -0.27
COc1ccc(NC(=O)CNS(=O)(=O)c2cccs2)cc1
  i, -0.3
O=c1c(O[C@@H]2O[C@H](CO)[C@@H](O)[C@H](O)[C@H]2O)c(-c2ccc(O)c(O)c2)oc2cc(O)cc(O)c12
  i, -0.14
COc1ccccc1/C=C/C(=O)c1cc(Br)ccc1OC(=O)c1ccco1
  i, 0.15
Cc1ccc(C(=O)COC(=O)c2cccc(NC(=O)c3ccc([N+](=O)[O-])cc3[N+](=O)[O-])c2)cc1
  i, 0.68
Cc1cccc(-n2ccnc2SCC(=O)Nc2cc(C)on2)c1
  i, -0.04
N#CC1=C(N)NC(SCC(=O)Nc2ccccc2)=C(C#N)C12CCCCC2
  i, 1.2
COc1ccc(NC(=O)COC(=O)CC23CC4CC(CC(C4)C2)C3)c([N+](=O)[O-])c1
  -6.1*, 0.04*
c1cc2c3c(cccc3c1)NC1(CCCCC1)N2
  i, 0.04
CCN1C(=O)[C@H]2[C@@H](c3ccc(-c4cccc(Cl)c4)c(OC)c3)N[C@@](C)(C(=O)OC)[C@H]2C1=O
  i, 2.2
COC(=O)CCc1c(C)nn(-c2ccccc2)c1C
  i, 1.1
CCOC(=O)Nc1ccc(S(=O)(=O)Nc2nc(C)cc(C)n2)cc1
  i, 0.64

(listing goes on)
Below each compound: KCNQ2 inh, KCNQ2 inh baseline
CCN1CCN(C2CCCCC2NS(=O)(=O)c2ccccc2)CC1 (configuration not stated)
  i, -1.4
O=C(Nc1ccc(Cl)cc1)NC1CCCC1Cc1ccco1 (configuration not stated)
  i, -0.56
CN(C)Cc1c(O)ccc2c(=O)c(-c3ccc(Cl)cc3)coc12
  i, -0.25
CC(C)(C#CC(O)(c1ccccc1)c1ccccc1)N1CCCC1
  i, 0.3
CCOc1ccc(C2/C(=C(/O)c3ccc(F)cc3)C(=O)C(=O)N2CCCN(C)C)cc1 (configuration not stated)
  i, -0.55
CC(c1ccc(C(C)(C)C)cc1)S(=O)CC(O)CO (configuration not stated)
  i, -0.2
Cn1c(=O)c(NCCO)c2c3c(cccc31)C(=O)c1ccccc1-2
  i, 97
COC(=O)CN1C(c2cccc(Cl)c2)=Nc2ccc(Cl)cc2C1c1ccccc1 (configuration not stated)
  i, -0.57
CCOC(=O)c1c2ccc(OCC(=O)N/N=C/c3ccc(C)cc3)cc2n2ccccc12
  i, -0.49
CCOc1ccc(C(=O)OC(C)CN2CCCCC2)cc1 (configuration not stated)
  i, 0.61
COc1cccc(/C=N/n2c(SC)nnc2-c2ccccc2)c1OC
  i, -0.86
CCOC(=O)c1nnn(-c2nonc2N)c1-c1ccc(Cl)cc1
  i, -0.03
CCN1CCN(c2c(Cl)cccc2NC(=O)c2ccco2)CC1
  i, -2
COCCCNC(=O)c1cc(=O)n(Cc2ccc(Cl)cc2)c2ccccc12
  i, 3
C/C(=N\NC(=O)c1cccnc1)c1ccc(-c2ccccc2)cc1
  i, -0.35
N#Cc1c(NC(=O)CSc2nc3ccccc3s2)sc2c1CCCC2
  i, -0.11
Cc1ccccc1C(=O)NC1CCS(=O)(=O)C1 (configuration not stated)
  i, -0.09
C[C@@H]1NC(=O)/C(=C\c2ccccc2Br)NC1=O
  i, 0.56
Nc1nn(-c2ccccc2)c(N)c1N=Nc1ccc2c(c1)OCO2
  i, -0.88
Cc1ccc(-c2cc(C(=O)N3CCCc4ccccc43)no2)cc1
  i, 1.6
CC/C(=N\NC(=S)Nc1cccc(C)c1)c1ccccc1
  i, -1.4
CC(=O)Nc1ccc(NC(=O)c2cc(-n3cnnc3)ccc2Cl)cc1
  i, 0.28
CC(NC(=O)Cn1c(NCCO)nc2ccccc21)C1CC2CCC1C2 (configuration not stated)
  i, 1.4
CCOc1ccc(CONS(=O)(=O)c2ccc(NC(C)=O)cc2)cc1Cl
  i, 0.31
O=[n+]1cc(-c2ccc(F)cc2)n([O-])c2c1CCC2
  i, 0.95
Cc1cc(C)n(/N=C/c2cc([N+](=O)[O-])ccc2O)c(=O)c1
  i, -0.45
COc1cc(CCCN2C(=S)NC[C@@H]2Cc2ccccc2)cc(OC)c1OC
  i, 0.2
O=C(NNC(=O)c1ccc2ccccc2c1O)Nc1ccc(F)cc1
  i, 0.48
Cc1noc(C)c1C(=O)OCC(=O)c1cc(C)n(Cc2ccccc2Cl)c1C
  i, -0.05
CCN(CC)S(=O)(=O)c1ccc(/C=C/C(=O)OCC(=O)Nc2ccc(C(N)=O)cc2)cc1
  i, 0.02
Cc1ccnc(NS(=O)(=O)c2ccc(NC(=O)c3snnc3C)cc2)n1
  i, -0.14
C=CC(=O)NCCCc1cc(C(C)(C)C)c(O)c(C(C)(C)C)c1
  i, -0.36
N#C/C(=C\c1cc2c(cc1Br)OCO2)C(=O)NCC1CCCO1 (configuration not stated)
  i, 0.13
CC(=O)c1ccc(OCc2cc(C(=O)N(C)Cc3nc4c(C)cccc4[nH]3)no2)cc1
  i, -0.15
COc1ccc2nc(NC(=O)CSc3nnc(-c4ccoc4C)n3C)sc2c1
  i, -0.32
CNC(=O)NC(=O)CSc1nnc(C(F)(F)F)n1C
  i, 0.15
COc1ccc(CCNC(=O)NC23CC4CC(CC(C4)C2)C3)cc1
  i, 1.2
Cc1ccc(C(=O)N2CCCC(c3ccccc3)=N2)cc1
  i, 1.5
O=C(O)CCC(=O)NCCc1cccc(Cl)c1
  i, 0.04

Assay outcomes as filed in PubChem BioAssay.
